Ecoli growth: E. coli growth inhibition; Escherichia coli growth, OD600, 23 h; stronger effect = lower value; OD600 absorbance (test concentration not listed); actives 0.21% (n = 330,000); AID 1053175;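 active means OD600 absorbance below the run mean of sample wells minus 3.6 SD, in any replicate, cut at about 0.56 in these data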;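 further: stock transfer was 300 nL into about 60 µL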
Beta cell apopt: beta cell apoptosis inhibition; INS-1E cytokine-induced death, ATP luminescence, 48 h; percent of positive-control rescue, neutral wells zero; protection from apoptosis, % (concentration not given with the values); actives 0.8% (n = 300,000); AID 435005;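 active means all replicates at 75% or more, or half of them and the mean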;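 further: 0% = cytokine-treated negative control wells and 100% = positive control rescue; higher means more ATP so stronger rescue from cytokine killing; wells of about 40 µL received 100 nL stock; the first replicate is given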
T cruzi inh: T. cruzi replication inhibition | T. cruzi beta-gal in NIH3T3, luminescence, 90 h | inhibition, % (no concentration beside the values) | actives 1.4% (n = 300,000);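 active means mean inhibition across valid replicates above about 55%, limit read from the data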;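 further: signal also drops with host cell toxicity which is not excluded here; 0% = plate median of DMSO wells and 100% = zero luminescence signal; higher percent means less beta-gal luminescence so fewer parasites; stock transfer was 50 nL into about 50 µL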
UCH37 inh: human UCH37 deubiquitinating enzyme inhibition; Q9Y5K5; purified proteasome/UCH37, Ub-AMC cleavage fluorescence; inhibition, % (test concentration not listed); actives 0.33% (n = 330,000);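 active means mean of two replicates above 20%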;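 further: 0% = compound-free wells with enzyme and 100% = wells lacking proteasome; stock transfer was 100 nL into about 20 µL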
Target sequence (Q9Y5K5 whole entry, looked up): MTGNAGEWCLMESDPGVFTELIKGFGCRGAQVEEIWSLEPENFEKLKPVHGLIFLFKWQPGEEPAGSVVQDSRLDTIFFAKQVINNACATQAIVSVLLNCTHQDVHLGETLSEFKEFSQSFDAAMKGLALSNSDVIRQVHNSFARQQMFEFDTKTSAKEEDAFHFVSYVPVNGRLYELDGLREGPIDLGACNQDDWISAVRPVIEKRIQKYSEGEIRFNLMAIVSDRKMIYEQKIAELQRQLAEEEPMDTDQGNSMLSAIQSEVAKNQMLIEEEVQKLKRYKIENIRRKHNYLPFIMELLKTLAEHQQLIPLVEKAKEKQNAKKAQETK
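assay system = human UCH37 enzyme supplied as purified proteasome complex | amount = proteasome at 0.15 nM in the dispensed enzyme solution | schedule = 30 min compound-proteasome preincubation then 25 min substrate reaction, room temperature | measured by = fluorescence, ex 355 nm, em 460 nm | benchmarks = no-proteasome wells (full inhibition) and compound-free wells (no inhibition)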
MLL AF4-AF9 inh: MLL-AF4/AF9 protein interaction inhibition | P42568 | AlphaScreen, biotin-AF4 peptide binding to FLAG-AF9 | inhibition, % at 10 µM | actives 0.47% (n = 350,000) | AID 651704;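 active means every replicate reaching a set inhibition limit, whatever the replicate mean, cut at about 25% in these data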;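 further: 0% = plate neutral control median and 100% = total signal loss; the record names both 10 and 1 µM as test concentration; the first replicate is given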
Target sequence (P42568 whole entry, looked up): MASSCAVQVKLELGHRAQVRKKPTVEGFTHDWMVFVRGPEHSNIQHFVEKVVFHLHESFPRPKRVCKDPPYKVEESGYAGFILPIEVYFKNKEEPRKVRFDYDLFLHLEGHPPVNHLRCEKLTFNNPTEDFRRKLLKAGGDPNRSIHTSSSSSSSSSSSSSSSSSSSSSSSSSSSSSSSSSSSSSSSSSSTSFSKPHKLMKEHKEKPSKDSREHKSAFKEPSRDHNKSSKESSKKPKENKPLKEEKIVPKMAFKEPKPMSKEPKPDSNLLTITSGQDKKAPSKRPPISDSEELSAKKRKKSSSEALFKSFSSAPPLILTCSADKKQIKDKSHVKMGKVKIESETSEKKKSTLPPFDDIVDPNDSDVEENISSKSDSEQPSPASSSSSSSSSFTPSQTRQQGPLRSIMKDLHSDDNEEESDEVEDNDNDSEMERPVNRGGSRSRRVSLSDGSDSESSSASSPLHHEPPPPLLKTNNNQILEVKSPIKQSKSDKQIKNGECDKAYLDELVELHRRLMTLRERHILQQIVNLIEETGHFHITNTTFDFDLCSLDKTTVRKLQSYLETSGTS
FGF22 binding: binders of recombinant human FGF22 by thermal shift. Q9HCT0. SYPRO orange fluorescence; percent of sucrose octasulfate shift, DMSO zero. calls only at 9.99 µM. actives 1.5% (n = 340,000);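 active means melting point raised past a set limit in the mean and every replicate; three in four hits are not shown here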
Target sequence (Q9HCT0 whole entry, looked up): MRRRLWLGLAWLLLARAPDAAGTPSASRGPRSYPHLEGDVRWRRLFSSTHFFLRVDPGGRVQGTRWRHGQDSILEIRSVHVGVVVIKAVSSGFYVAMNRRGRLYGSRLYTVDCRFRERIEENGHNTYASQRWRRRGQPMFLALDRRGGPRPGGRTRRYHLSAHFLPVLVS
Ecoli rRNA inh: inhibitors of bacterial rRNA selective over humanized ribosomes; GFP signal change (wild-type ribosome), % (test concentration not listed); AID 720706; actives 1.6% (n = 350,000); E. coli WT GFP vs humanized-ribosome RFP mutants, fluorescence, 24 h; stronger effect = lower value; DMSO median 0, no signal -100;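 active means significant combined selectivity score with lowered wild-type GFP, culture density cut under 30%, mutant RFP and density less affected; inactive means any of these conditions unmet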; further: one replicate is shown; some compounds called inactive have numbers as strong as hits
A1 inh: inhibitors of the anti-apoptotic protein A1, read as caspase activation; AID 2462; caspase activation, % (concentration not given with the values); MEF A1-2A-BIM cells, Caspase-Glo 3/7 luminescence, 3 h; percent of clofoctol response, vehicle zero; actives 0.066% (n = 330,000);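 active means over half of replicate activation scores above 10%, or exactly half above 10 with the replicate mean above 10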;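 further: wells of about 30 µL received 50 nL stock; many hits fall short of the cut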
Ecoli rRNA inh OD600: recorded beside Ecoli rRNA inh, whose call it bears; OD600 change, %; measured here: OD600 growth;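 optical density of the mix in the first replicate; 0 = DMSO median and -100 = no signal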
Ecoli rRNA inh RFP: further read-out of Ecoli rRNA inh, marked with its call; RFP signal change, %; measured here: RFP humanized mutant strains;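 first replicate; 0 = DMSO median and -100 = no signal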
* = called active by the depositor; i = inactive; . = not tested or not shown; & = joins results of further samples. A portion of the library; the hit share may differ from the screen's.

SMILES	Ecoli growth	Beta cell apopt	T cruzi inh	UCH37 inh	MLL AF4-AF9 inh	FGF22 binding	Ecoli rRNA inh	Ecoli rRNA inh OD600	Ecoli rRNA inh RFP	A1 inh
COc1ccc(S(=O)(=O)N/N=C\c2ccc3c(c2)OCO3)cc1	.	-4	10	.	-4.3	i	-10	-18	3.4	-0.9
Cc1c(C)c2ccc(OCC(=O)Nc3cccnc3)c(C)c2oc1=O	0.66	-5	-3	-59	3.4	i	3	6	-1.0	0.0
CC(C(=O)NCc1ccc2c(c1)OCO2)c1ccc([N+](=O)[O-])cc1 (centres undefined)	0.73	-2	2	2.9	0.0	i	11	8	2.3	-1.3
CCOc1ccccc1C1C(C(=O)Nc2ccccc2OC)=C(C)Nc2nc(CCCO)nn21 (centres undefined)	0.77	4	-9	2.8	-1.4	i	10	7	-1.6	0.2
Cc1ccc(C(=O)NC(=S)NCc2ccccc2)cc1	0.68	.	-7	2.6	-0.1	i	-29	-41	7.4	0.0
CC(C)(C)OC(=O)N[C@@H](Cc1ccccc1)[C@H](O)c1ccco1	.	-1	12	3.2	-0.6	i	7	2	10	0.0
CCN(CC)CCCNC(=O)CC1Oc2ccc(C)cc2NC1=O (centres undefined)	0.66	-1	-8	2.9	-1.2	i	-2	5	-2.8	1.4
O=C(c1ccc2c(c1)OCO2)C1CCCN(C(=O)c2cnn(Cc3ccccc3)c2)C1 (centres undefined)	0.67	-13	-1	-0.3	0.5	i	-10	-6	4.7	1.1
C=CCOc1ccc(/C=C2\SC(=S)N(NS(=O)(=O)c3ccccc3)C2=O)cc1	0.68	-8	-5	7.1	1.3	i	-38	-42	1.0	0.2
CCCn1c(SCC(=O)Nc2cc(S(=O)(=O)N(C)C)ccc2OC)n[nH]c1=O	0.69	-1	-16	4.7	2.1	i	2	11	11	0.5
Cc1cc(NC(=O)CCC(=O)N(CC(=O)NC2CCCC2)c2ccc(C)c(F)c2)no1	0.65	-4	24	2.5	-6.2	i	3	-13	3.0	-0.6
C[N+](C)(C)CC=O	0.7	2	.	0.8	3.1	i	5	17	0.0	-1.3
Cn1cccc1Cc1nnc(SCC(=O)NCc2ccc(F)cc2)n1-c1ccc(F)cc1	0.76	1	-8	-1.4	-0.4	i	5	7	0.8	-0.5
O=C(Nc1nnc(-c2ccco2)s1)C1CCCCC1	0.75	-7	3	-6.1	.	.	.	.	.	0.4
N#Cc1ccccc1COC(=O)c1cccc(S(=O)(=O)N2CCCC2)c1	0.61	2	.	-0.1	-2.7	i	-29*	-18*	2.9*	0.5
CC(C)CC(O)C1CCN(C(=O)CCc2nnc(-c3ccccc3)o2)CC1 (centres undefined)	0.67	-5	-7	1.0	-1.6	i	-1	1	0.1	0.8
O=C(NCCc1ccc(OC(F)F)cc1)C1CC(=O)N(c2ccc3c(c2)OCCO3)C1 (centres undefined)	0.72	-3	.	0.7	0.1	i	-1	-7	1.0	0.1
COc1ccc(NC(=S)NC(=O)c2ccc3c(c2)OCCO3)cc1	0.7	-6	.	3.1	-1.6	i	1	10	-1.2	-2.0
COc1cccc(CC2(CO)CCCN(Cc3ccc(C)s3)C2)c1 (centres undefined)	0.69	0	58*	3.3	3.5	i	-2	5	-2.3	0.2
CN(C)c1nc(-c2ccccc2)ns1	0.69	-8	-17	1.3	1.9	i	5	5	-0.9	-0.2
CC1(C)Cc2nc3oc4c(=O)n(CC(=O)Nc5ccc(Cl)cc5)cnc4c3cc2CO1	0.7	6	-16	-12	-2.5	i	12	17	2.2	0.1
O=C(CNC(=O)C1(c2ccccc2)CC1)Nc1ccc(F)c(F)c1	0.67	-6	0	1.4	-2.3	i	6	4	0.2	0.4
COc1ccc(CNC(=O)Nc2cccc(C)c2)cc1	0.73	0	-5	8.7	.	.	.	.	.	-6.5
CCOC(=O)N=S(N)(=O)c1ccc(Cl)cc1 (centres undefined)	0.75	-8	-12	0.7	.	.	.	.	.	2.2
NC(=O)COC(=O)c1ccc(S(=O)(=O)N2CCCCCC2)cc1	0.75	-3	-9	-0.9	.	.	.	.	.	1.4
COc1cc(OC)cc(-c2c(C#Cc3ccsc3)c3cc(-c4ccc(OC)cc4F)ccc3n2C)c1	0.76	0	.	-19	-7.6	i	7	-4	-4.0	1.4
Cc1cc(S(=O)(=O)Nc2ccc(C(=O)NCCCN3CCOCC3)cc2)ccc1F	0.69	0	-2	4.2	-0.2	.	0	1	-1.5	-0.2
CCCc1cc(=O)oc2cc(OCc3cccc(OC)c3)c(Cl)cc12	0.71	-1	14	4.4	-3.0	i	3	7	-2.9	-0.9
CCOc1ncccc1C(=O)OCc1ccc(C#N)cc1	0.64	2	-1	-0.6	.	.	.	.	.	-0.8
CN(C(=O)C1CCCO1)c1nnc(-c2ccncc2)s1 (centres undefined)	0.66	-11	-4	-40	.	.	.	.	.	0.6
N#Cc1c(-c2ccccc2)nc(SCC(=O)NC2CCCCC2)[nH]c1=O	0.73	1	3	0.9	-3.7	.	-15	-25	-7.2	2.1
COc1ccccc1CNC(=O)C(c1ccccc1)c1ccccc1	0.69	-11	11	3.9	-2.4	i	7	8	-1.0	1.0
Cc1c(Nc2cc(Cl)c3nonc3c2[N+](=O)[O-])c(=O)n(-c2ccccc2)n1C	0.69	.	.	10	-3.9	i	14	4	0.5	.
O=C(CN1C(=O)c2ccccc2C1=O)NCCOc1ccccc1	0.65	-6	.	0.2	4.1	i	6	7	0.2	-0.3
CCCOc1ccc(NC(=O)C2OC3OC(C)(C)OC3C3OC(C)(C)OC23)cc1 (centres undefined)	0.69	-5	5	1.0	.	.	.	.	.	-1.1
CN(CC(=O)Nc1ccccc1C(F)(F)F)C(=O)CN1C(=O)C2CCCCC2C1=O (centres undefined)	.	-7	-4	.	-1.2	.	8	1	1.9	0.2
Cc1ccc(NC(=O)CSc2nnc(-c3cccs3)n2Cc2ccco2)cc1	0.71	-3	23	4.3	.	.	.	.	.	-0.9
Cc1cccc(C2c3[nH]c4ccccc4c3CCN2C(=O)c2cn(C)c3ccccc3c2=O)n1 (centres undefined)	0.69	-3	15	3.2	1.6	i	-1	-8	-1.7	0.9
N#Cc1cc2c(nc1SCc1ccccc1)CCCC2=O	0.71	10	13	0.4	.	.	.	.	.	-0.3
Cc1nc(-c2ccc(Cl)cc2)sc1C1(C)CC(c2cccc(Cl)c2)=NO1 (centres undefined)	0.66	-4	-5	-2.4	4.7	i	6	10	-5.8	1.1
CC1(OC(=O)CCc2ccccc2)C(=O)C=C2C=C(c3ccc(C#N)cc3)N(Cc3ccco3)C=C2C1=O (centres undefined)	.	-8	-11	-0.9	-9.3	i	3	1	4.2	0.9
CCOc1ccccc1OCCC(=O)OCC(=O)c1ccc[nH]1	0.67	-3	-10	3.7	0.3	i	6	5	1.4	-0.4
CCOc1ccc(OCC)c(NC(=O)CCCN2C(=S)NC(C)(C)CC2C)c1 (centres undefined)	0.68	-4	-28	0.3	.	.	.	.	.	-0.4
O=C1N/C(=C/c2cccn2-c2ccc(F)cc2)C(=O)N1Cc1ccccc1	0.68	5	5	-53	.	.	.	.	.	-0.7
COc1ccc(OC)c(/C=N/NC2=NS(=O)(=O)c3ccccc32)c1	.	2	-7	.	-0.8	i	8	18	3.2	0.7
O=C(c1ccco1)N1C(=O)c2cccc3cccc1c23	0.76	-6	.	-9.0	.	.	.	.	.	0.4
COc1cc(OC)cc(C(=O)NNC(=O)c2ccc(S(=O)(=O)N(C)c3ccccc3OC)cc2)c1	0.7	6	-19	-0.1	0.8	i	-18	-9	2.1	0.6
Cc1cccc(C)c1-n1nnnc1C(C)(C)N1CCN(N=O)CC1	0.67	-10	9	2.9	5.3	i	9	7	1.3	-0.2
Cc1c(C)n2c(SCC(=O)NC3CCCC3)nnc2[nH]c1=O	0.65	0	-15	3.9	-6.2	i	10	15	-1.5	0.2
COc1ccc(-c2csc(NC(=S)NC(=O)c3cc4ccccc4o3)n2)cc1Br	.	-1	28	.	-3.1	i	5	5	-0.1	0.6
CC(C)CC1(C2CCCC2)NC(=O)NC1=O (centres undefined)	0.67	.	.	3.6	1.1	i	10	14	-1.8	.
C#CCNC(=O)C1=C[C@@H](c2ccccc2)C[C@@H](OCc2ccc(CO)cc2)O1	.	-4	-10	-0.2	-3.4&-2.7	i	-1	0	-0.6	-0.1

15 of these compounds, reformatted:
Compound | Ecoli growth | Beta cell apopt | T cruzi inh | UCH37 inh | MLL AF4-AF9 inh | FGF22 binding | Ecoli rRNA inh | Ecoli rRNA inh OD600 | Ecoli rRNA inh RFP | A1 inh
COc1ccc(S(=O)(=O)N/N=C\c2ccc3c(c2)OCO3)cc1 | . | -4 | 10 | . | -4.3 | i | -10 | -18 | 3.4 | -0.9
Cc1c(C)c2ccc(OCC(=O)Nc3cccnc3)c(C)c2oc1=O | 0.66 | -5 | -3 | -59 | 3.4 | i | 3 | 6 | -1.0 | 0.0
CC(C(=O)NCc1ccc2c(c1)OCO2)c1ccc([N+](=O)[O-])cc1 (centres undefined) | 0.73 | -2 | 2 | 2.9 | 0.0 | i | 11 | 8 | 2.3 | -1.3
CCOc1ccccc1C1C(C(=O)Nc2ccccc2OC)=C(C)Nc2nc(CCCO)nn21 (centres undefined) | 0.77 | 4 | -9 | 2.8 | -1.4 | i | 10 | 7 | -1.6 | 0.2
Cc1ccc(C(=O)NC(=S)NCc2ccccc2)cc1 | 0.68 | . | -7 | 2.6 | -0.1 | i | -29 | -41 | 7.4 | 0.0
CC(C)(C)OC(=O)N[C@@H](Cc1ccccc1)[C@H](O)c1ccco1 | . | -1 | 12 | 3.2 | -0.6 | i | 7 | 2 | 10 | 0.0
CCN(CC)CCCNC(=O)CC1Oc2ccc(C)cc2NC1=O (centres undefined) | 0.66 | -1 | -8 | 2.9 | -1.2 | i | -2 | 5 | -2.8 | 1.4
O=C(c1ccc2c(c1)OCO2)C1CCCN(C(=O)c2cnn(Cc3ccccc3)c2)C1 (centres undefined) | 0.67 | -13 | -1 | -0.3 | 0.5 | i | -10 | -6 | 4.7 | 1.1
C=CCOc1ccc(/C=C2\SC(=S)N(NS(=O)(=O)c3ccccc3)C2=O)cc1 | 0.68 | -8 | -5 | 7.1 | 1.3 | i | -38 | -42 | 1.0 | 0.2
CCCn1c(SCC(=O)Nc2cc(S(=O)(=O)N(C)C)ccc2OC)n[nH]c1=O | 0.69 | -1 | -16 | 4.7 | 2.1 | i | 2 | 11 | 11 | 0.5
Cc1cc(NC(=O)CCC(=O)N(CC(=O)NC2CCCC2)c2ccc(C)c(F)c2)no1 | 0.65 | -4 | 24 | 2.5 | -6.2 | i | 3 | -13 | 3.0 | -0.6
C[N+](C)(C)CC=O | 0.7 | 2 | . | 0.8 | 3.1 | i | 5 | 17 | 0.0 | -1.3
Cn1cccc1Cc1nnc(SCC(=O)NCc2ccc(F)cc2)n1-c1ccc(F)cc1 | 0.76 | 1 | -8 | -1.4 | -0.4 | i | 5 | 7 | 0.8 | -0.5
O=C(Nc1nnc(-c2ccco2)s1)C1CCCCC1 | 0.75 | -7 | 3 | -6.1 | . | . | . | . | . | 0.4
N#Cc1ccccc1COC(=O)c1cccc(S(=O)(=O)N2CCCC2)c1 | 0.61 | 2 | . | -0.1 | -2.7 | i | -29* | -18* | 2.9* | 0.5

High-throughput results deposited in PubChem BioAssay by several laboratories.
